VACV Venus inh – vaccinia inhibition (Venus reporter) | Vaccinia virus Venus reporter expression, fluorescence | Potency, µM (series often up to 36.5 µM), inactives show at the top dose activity change, negative = inhibition, hits mostly inhibitors | actives 0.46% (n = 330,000) | AID 720580; active means well fitted inhibition curve with a large enough effect; inconclusive means small, poorly fitted or top-dose-only effect; inactive means no such curve, though single readings can be large or run the other way; tested in A549 cells; note: nearly all actives have a fitted effect of over 30% in size; inactives centre near -10
VACV mCherry inh – inhibitors of vaccinia virus infection (mCherry reporter signal); Potency, µM (highest dose often 36.5 µM), inactives show top-dose activity change, negative = inhibition, usual class: inhibitors; actives 0.63% (n = 310,000); Vaccinia virus mCherry reporter infection, fluorescence; about a quarter of the inactives have no number; active = well fitted inhibition curve with a large enough effect; inconclusive = small, poorly fitted or top-dose-only effect; inactive = no such curve, though single readings can be large or run the other way; tested in A549 cells; note: nearly all actives have a fitted effect of over 35% in size; inactives centre near -10
* hit, by the source's call; i = inactive; ? = inconclusive; . = not tested or not shown; [ ] = dose if it differs, or a comment. % is set by controls: 0 for no effect and ±100 for the full control effect; potency is the fitted concentration of half-maximal effect.

SMILES	VACV Venus inh	VACV mCherry inh
Cc1ccc(C)c(S(=O)(=O)N2CCCCC2CCNC(=O)C(=O)NCc2cccnc2)c1 (configuration not stated)	?	-30.2%
COc1ccc(NC(=O)CN(C)CC(=O)NC2CCCCC2C)cc1 (configuration not stated)	-14.1%	i
CCS(=O)(=O)N1CCc2cc(C(=O)Nc3cccc(C)c3C)ccc21	-0.9%	i
CCOc1ccc2nc(NC(=O)c3nc(SCc4ccc(C)cc4)ncc3Cl)sc2c1	-13.0%	-23.1%
O=C1C(=O)N(CCCN2CCOCC2)C(c2ccc([N+](=O)[O-])cc2)/C1=C(/O)c1ccc2c(c1)OCO2 (configuration not stated)	-16.2%	i
CCOC(=O)c1c(C)n(C)c2ccc(OC)c(NC(=O)CN3CCN(C(=O)c4ccco4)CC3)c12	-6.7%	.
O=c1[nH]c2cc3ccccc3cc2nc1C(F)(F)F	-12.8%	-1.6%
CCOC(=O)CN1Cc2cccc(C(=O)O)c2C1=O	5.9%	9.2%
Cc1ccccc1S(=O)(=O)Cc1ccc(C(=O)NC2CCCC2)o1	-7.5%	-8.6%
CCN(CC)CCCNC(=S)Nc1ccc(Br)cc1	-22.6%	-12.3%
COc1ccccc1CNC(=O)COCc1cc(-c2cccs2)on1	-17.5%	-2.2%
CN(C)/C=C/C(=O)c1ccc(OCCN(C)c2ccccn2)cc1	-11.9%	-0.2%
Nc1cccc(N=[N+]([O-])c2cccc(N)c2)c1	-0.8%	-28.6%
Cc1ccc(C)c(S(=O)(=O)NCc2ccc(C(=O)N3CCC(Cc4ccccc4)CC3)cc2)c1	?	-8.5%
C[C@H]1CC[C@@]2(C)[C@@H](CC[C@@H]3[C@@H]2CC[C@]2(C)[C@@H](O)CC[C@@H]32)C1	-11.0%	-20.2%
COc1ccc(OC)c(C2(O)CSC(=Nc3cccnc3)N2Cc2ccco2)c1 (configuration not stated)	-11.3%	-23.6%
CC(=O)Nc1ccc(S(=O)(=O)N(C)Cc2ccccc2)cc1	0.0%	i
C/C(CC(=O)Nc1cc(C)ccn1)=N\NC(=O)c1cccc(C)c1O	-29.6%	?
Cc1cc(-c2ccccc2)nc(N(C)N)c1S(C)(=O)=O	-15.0%	?
O=c1[nH]c(CSc2nnc3ccccn23)nc2ccccc12	-5.0%	-7.6%
Cc1ccccc1NS(=O)(=O)c1ccc(C(=O)NCCCN2CCCC2=O)cc1	-6.1%	-14.7%
COc1cc2c(cc1NC(=S)NC(=O)/C=C/c1ccco1)oc1ccccc12	6.4%	i
Cc1cccc(NC(=O)CCC(=O)OCc2ccc(Br)cc2)c1	-18.0%	i
CCN(CC(=O)NC)S(=O)(=O)c1ccc(C)cc1	-14.8%	.
CCCCN(C)CCNC(=O)c1ccc2c(c1)NC(=O)CN2	-8.8%	-4.5%
OC(C[n+]1cccc(Br)c1)c1ccccc1 (configuration not stated)	-26.0%	?
CC(=O)Nc1cccc(/C(C)=N/NC(=O)c2ccc(O)cc2)c1	-10.0%	-13.5%
CS(=O)(=O)N(CC(=O)NC1CCCC1)c1cccc(F)c1	-13.4%	i
COc1ccc(C(=O)N[C@H](C(=O)NCCCn2nc(C)cc2C)C(C)C)cc1	-0.9%	-8.8%
O=C(COC(=O)c1ccccc1O)Nc1cc([N+](=O)[O-])ccc1Cl	-22.4%	i

As a working copy, some entries already given.
SMILES	VACV Venus inh	VACV mCherry inh
CCCCN(C)CCNC(=O)c1ccc2c(c1)NC(=O)CN2	-8.8%	-4.5%
OC(C[n+]1cccc(Br)c1)c1ccccc1 (configuration not stated)	-26.0%	?
CC(=O)Nc1cccc(/C(C)=N/NC(=O)c2ccc(O)cc2)c1	-10.0%	-13.5%
CS(=O)(=O)N(CC(=O)NC1CCCC1)c1cccc(F)c1	-13.4%	i
COc1ccc(C(=O)N[C@H](C(=O)NCCCn2nc(C)cc2C)C(C)C)cc1	-0.9%	-8.8%
O=C(COC(=O)c1ccccc1O)Nc1cc([N+](=O)[O-])ccc1Cl	-22.4%	i

Continued:
SMILES	VACV Venus inh	VACV mCherry inh
Cn1cnnc1SCc1ccc(C(=O)O)cc1	-12.8%	.
CC(=O)n1cc(N(C(=O)CCl)c2ccc([N+](=O)[O-])cc2)c2ccccc21	-20.6%	-28.3%
COc1ccc(Br)cc1CNC(=O)C1CCCN(S(=O)(=O)N2CCC(C)CC2)C1 (configuration not stated)	?	-12.5%
CC1=C(C(=O)Nc2ccccc2)C(c2ccncc2)n2nc(SCc3ccccc3Cl)nc2N1 (configuration not stated)	-3.1%	-0.6%
O=C(NCC1CCCO1)c1sc2cc(Cl)ccc2c1Cl (configuration not stated)	-6.1%	-15.1%
COc1ccc(Cc2nnc(SCC(=O)Nc3ccccc3)[nH]c2=O)cc1	-4.4%	-11.8%
O=C(Nc1ccc(Cl)cc1C(F)(F)F)c1cc(S(=O)(=O)N2CCOCC2)ccc1F	-20.1%	i
CCCCN(CC)C(=O)CCCn1c(=O)c2cccn2c2ccccc21	-8.7%	-6.3%
O=C(COc1ccc(Br)cc1)N(Cc1ccco1)C1CCS(=O)(=O)C1 (configuration not stated)	-7.9%	i
CCCCOc1ccc(C(=O)NCC(=O)NCC(c2ccc(OC)cc2)N2CCOCC2)cc1 (configuration not stated)	-8.8%	-26.9%
CCOC(=O)c1ccc(NC(=O)C2C3CCC(C3)C2C(=O)O)cc1 (configuration not stated)	-3.3%	-10.3%
O=C(C1CCCCC1)N1CCCn2c1nc1ccccc12	-24.9%	.
CCN1C(=O)C(CC(=O)Nc2ccccc2)S/C1=N\c1ccccn1 (configuration not stated)	-10.6%	i
Cc1cc(NS(=O)(=O)c2ccc(NC(=O)c3ccco3)cc2)no1	-1.1%	.
O=C1CCC([N+](=O)[O-])C(c2cccc(Cl)c2Cl)N1 (configuration not stated)	-13.1%	.
O=C(N/N=C/c1c(O)n(C2CCCCC2)c(=S)[nH]c1=O)c1ccccc1	-6.7%	-7.0%
CC(=O)c1ccccc1OCC(O)Cn1c(CO)nc2ccccc21 (configuration not stated)	-0.3%	-2.9%
COc1cc(NC(=O)COC(=O)c2[nH]c(C)c(C(C)=O)c2C)cc(OC)c1	-4.6%	-8.7%
Cc1nn2c(=O)cc(COC(=O)c3cccc(NC(=O)COc4ccccc4C)c3)nc2s1	-6.6%	-4.4%
N#Cc1nc(Cc2ccccc2)oc1NCCCn1ccnc1	-9.1%	-13.1%
O=C(O)c1ccccc1-c1ccccc1C(=O)Nc1ccc2c(c1)C(=O)c1ccccc1-2	-13.1%	i
CC1(C)CC(=O)C(CC(=O)NC2CCCc3ccccc32)C(=O)C1 (configuration not stated)	-2.4%	-14.3%
CC1Cc2ccccc2N1C(=O)CSc1nnnn1-c1ccc2c(c1)OCCO2 (configuration not stated)	-2.3%	-7.1%
Cc1ccc(C2=NOC(C)(c3nnc(-c4ccc(F)cc4)o3)C2)cc1 (configuration not stated)	-9.6%	i
O=Cc1ccc(I)cc1	-14.9%	-2.6%
N#Cc1ccc(/C=N/NC(=O)c2cccc(S(=O)(=O)N3CCOCC3)c2)cc1	1.2%	-15.4%
COc1ccc(CN(C)C(=O)C23CC4CC(CC(C4)C2)C3)c(OC)c1	-13.5%	-20.7%
COc1ccc(Nc2nc(N)nc(COc3ccc(OC)cc3)n2)cc1	-10.7%	i
Cc1ccc(/C=C/C(=O)NCCCN2CCN(CCCNC(=O)/C=C/c3ccc(C)cc3)CC2)cc1	-10.7%	-13.2%
CCn1cc(C(=O)N2CCN(c3ccccc3OC)CC2)c2cc(OC)c(OC)cc2c1=O	-16.8%	-18.8%
C[n+]1cccc(CNC(=O)/C=N/O)c1	-9.6%	-15.3%
O=c1c2ccccc2nc(-c2ccccc2)n1-c1cccc(O)c1	0.9%	i
Cc1ccc(/C=N/NC(=O)CNC(=O)c2ccc(S(=O)(=O)N3CCCC3)cc2)o1	-9.9%	i
Cc1ccc(S(=O)(=O)N2[C@@H](c3cccc(Cl)c3)C(C(=O)O)=CC[C@H]2c2cccc(Cl)c2)cc1	-18.6%	i
Cc1ccc(C)n1-c1sc2c(c1C(=O)O)CCCC2	14.8%	i
COc1ccc(OC(C)C(=O)N(C)Cc2nc(-c3ccc(C)cc3)no2)cc1 (configuration not stated)	-12.7%	-10.5%
NC(=O)N/N=C1\CCS(=O)(=O)c2ccc(F)cc21	-6.4%	-11.5%
CC(C)CCNC(=O)C1CCCN(S(=O)(=O)c2ccc(-n3cnnn3)cc2)C1 (configuration not stated)	-15.7%	i
O=C1CN(C(=O)c2cc([N+](=O)[O-])ccc2Cl)C(c2ccc(F)cc2)c2cc(F)ccc2N1 (configuration not stated)	-11.4%	-28.5%
CCO[C@H]1OC(C(=O)NCc2ccccc2)=C[C@@H](c2cn(C(C)=O)c3ccccc23)[C@@H]1CCCO	-27.5%	i
S=C(Nc1ccc2nc(-c3ccccn3)c(-c3ccccn3)nc2c1)N1CCOCC1	12.3%	i
O=C(O)CCC(=O)N1CCc2cc(S(=O)(=O)N(CCc3ccccc3)Cc3ccccc3)ccc21	-9.3%	i
c1csc(-c2nc3ccccn3c2Nc2ccc3c(c2)OCCO3)c1	-3.2%	-14.5%
COc1ccc(CCNC(=O)Cc2ccccc2)cc1OC	-14.6%	i
Cc1cccc(C)c1NC(=O)CN(C)C(=O)CSC(=S)N1CCCC1	-19.8%	-4.1%
COc1ccc(CCn2nnnc2C(c2ccccc2)N2CCN(C)CC2)cc1OC (configuration not stated)	-19.9%	i
C/C(=N\O)C(C)(C)Nc1ccccc1F	-11.9%	i
c1ccc(SCc2nc(-c3ccncc3)no2)cc1	-5.2%	i
CCCCOc1ccc(C2(C(=O)O)CCCC2)cc1	-15.5%	.
O=C(c1ccc(F)cc1F)C1CCN(c2ccc([N+](=O)[O-])cn2)CC1	-28.8%	-1.3%
Cc1ccc(S(=O)(=O)N(C)C[C@@H]2OCCCC[C@@H](C)Oc3ccc(NS(=O)(=O)c4c(C)noc4C)cc3C(=O)N([C@H](C)CO)C[C@@H]2C)cc1	?	-29.0%
CCOC(=O)[C@]12CCC=C1N(Cc1cccc3ccccc13)C(=O)[C@H](CC(=O)NCc1cccc(C(F)(F)F)c1)C2	-28.4%	-18.7%
O=C(O)/C=C/c1ccc(OCCCF)cc1	1.7%	2.5%
CC(OC(=O)c1ccc2c(=O)n3c(nc2c1)CCCCC3)C(=O)Nc1ncc(Cl)cc1Cl (configuration not stated)	-10.5%	-16.3%
Cc1n[nH]c(C)c1C(=O)CC1(O)C(=O)N(CCc2ccccc2)c2ccc(Cl)cc21 (configuration not stated)	4.1%	i
COc1ccc(N2CCN(c3oc(/C=C/c4ccccc4OC)nc3C#N)CC2)cc1	-3.8%	-8.3%
C[C@H](CO)N1C[C@H](C)[C@@H](CN(C)S(=O)(=O)c2ccc(F)cc2)Oc2ccc(NS(=O)(=O)c3ccccc3)cc2C1=O	-20.1%	-18.5%
Cc1cc([N+](=O)[O-])cnc1N1CCOCC1	-18.7%	i
O=C1CC(NS(=O)(=O)c2cccs2)CN1c1ccc(Cl)cc1 (configuration not stated)	-12.6%	-8.4%
C=Cc1ccc(CSc2nc(-c3ccccc3C)nc3c2Cc2c(CO)cnc(C)c2O3)cc1	-21.5%	-27.5%

A few values from the results shown.
`COc1ccc(CCn2nnnc2C(c2ccccc2)N2CCN(C)CC2)cc1OC` (configuration not stated) | VACV Venus inh = -19.9%
`CC(OC(=O)c1ccc2c(=O)n3c(nc2c1)CCCCC3)C(=O)Nc1ncc(Cl)cc1Cl` (configuration not stated) | VACV mCherry inh = -16.3%
`C=Cc1ccc(CSc2nc(-c3ccccc3C)nc3c2Cc2c(CO)cnc(C)c2O3)cc1` | VACV Venus inh = -21.5%
`C/C(=N\O)C(C)(C)Nc1ccccc1F` | VACV Venus inh = -11.9%
`Cc1cc([N+](=O)[O-])cnc1N1CCOCC1` | VACV Venus inh = -18.7%

Following part:
SMILES	VACV Venus inh	VACV mCherry inh
Cc1cc(C)c2c(n1)sc1c(N3CCN(CCO)CC3)ncnc12	-4.7%	-14.3%
O=C(Nc1nnc(SCC(=O)N2CCCCC2)s1)c1c(F)cccc1F	-2.2%	-4.0%
Cc1cccc(C(=O)N/C(=C\c2ccco2)C(=O)N2CCCCCC2)c1	11.9%	-17.9%
COc1ccc(-c2csc(NC(C)=O)n2)cc1OC	?	-27.3%
COc1ccc(/C=N/NC(=O)CCCCCNC(=O)c2ccccc2)cc1	-9.1%	-14.7%
Cc1nnc(SCC(=O)Nc2ccc3c4c(cccc24)CC3)n1C	-15.5%	-7.0%[1.46 µM]
CCOC(=O)c1csc(N/N=C2\CCc3ccccc32)n1	-17.2%	?
Cc1ccc(C)c(N2CCN(S(=O)(=O)c3cc(Br)cc4c3N(C(=O)C3CC3)CC4)CC2)c1	-3.7%	-6.0%
COc1cc2c(cc1OC)C1=NC(=O)CN1C(SCc1ccccc1)=N2	-10.0%	-15.2%
CC(=O)Nc1ccc2nc(NC(=O)COc3cccc(C)c3)sc2c1	-10.5%	-22.7%
COc1ccc(C2(C(=O)Nc3c(C)n(C)n(-c4ccccc4)c3=O)CCCC2)cc1OC	-0.3%	-8.5%
Cc1ccc(/C=N/NC(=O)c2cccc3ccccc23)o1	-14.1%	-17.7%
COc1cc2c(cc1OC)C(C(=O)Nc1ccccc1N1CCN(C)CC1)C1c3ccccc3CCN1C2=O (configuration not stated)	-4.1%	-11.8%
O=C(Cc1ccccc1)NN1C(=O)C2C3C=CC(C3)C2C1=O (configuration not stated)	-16.3%	.
N#C/C(=C\c1ccc(Sc2ccc(Cl)cc2)o1)c1nc2ccccc2[nH]1	-22.9%	?
Cc1ccc(S(=O)(=O)Cn2nnnc2CN2CCOCC2)cc1	-21.3%	i
Cc1ccc2c(c1)C=CC(C#N)N2C(=O)c1ccccc1 (configuration not stated)	-24.0%	?
O=C(O)c1ccc2c(c1)ncn2C1CCCCC1	-4.2%	-7.7%
CN1CCN(S(=O)(=O)c2ccc(NC(=O)C3CCCCC3)cc2)CC1	-15.7%	.

Screens deposited in PubChem by National Center for Advancing Translational Sciences (NCATS).
